# GLA inh pH 4.5 = qHTS Assay for Inhibitors of Human alpha-Galactosidase at pH 4.5 | Alpha-galactosidase A (Homo sapiens), P06280 | purified enzyme, 4-MU-alpha-Gal fluorescence, pH 4.5 | activity change, negative = inhibition, % at 105 µM | 230,000 tested, under 10 active | AID 1467, 2008; inconclusive = small, poorly fitted or top-dose-only inhibition, or a rising curve; inactive = flat fitted curve, though single readings scatter; no compound was filed as active;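 also: 0% = full activity with enzyme and -100% = basal without enzyme; dose as in the result columns while the protocol names 77 µM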
# Rango release inh = qHTS Assay for Inhibitors of RanGTP induced Rango (Ran-regulated importin-beta cargo) - Importin beta complex dissociation; Snurportin-1 (Homo sapiens) + GTP-binding nuclear protein Ran (Homo sapiens) + Importin …; Biochemical FRET Rango-importin beta, RanGTP-induced dissociation; Potency, µM (top dose mostly 46.1 µM), for inactives: top-dose activity change, negative = inhibition; actives 0.071% (n = 340,000); active means falling FRET ratio curve, often poorly fitted, with flat reads before Ran was added; inconclusive means other falling curves, or compound fluorescence or quenching; inactive means flat or rising ratio curve;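 also: potency is read from the fitted curve at half-maximal effect; % of control where 0% means no effect; nearly all actives have a fitted effect of over 45% in size; -100% = wells without RanGTP and RCC1; the record marks most hits as doubtful in a second field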
#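 Rango/importin beta premix (0.1/0.25 uM final), PBS + 1 mM DTT + 0.02% Tween-20 + 0.1% BSA; cpd 5 min RT; FRET pre-read; + RanGTP-RCC1 (0.6 uM Ran, 2 mM GTP, 0.2 uM RCC1); 45 min RT; FRET post-read, ex 430, em 486/530 nm.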
# Rango complex inh = qHTS Assay for Inhibitors of Rango (Ran-regulated importin-beta cargo) - Importin beta complex formation; Importin subunit beta-1 (Homo sapiens), Q14974; Rango CFP/YFP FRET sensor + importin beta, 45 min; Potency, µM (doses to about 92.2 µM), for inactives: top-dose inhibition of complex formation; actives 0.031% (n = 340,000); AID 540263, 2011; active = rising FRET ratio curve, often small or poorly fitted; inconclusive = mostly compound fluorescence or quenching in the first reads; inactive = flat curves in all reads;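 also: potency is read from the fitted curve at half-maximal effect; 0% = DMSO wells and 100% = buffer wells lacking importin beta; nearly all actives have a fitted effect of over 15% in size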
# Target sequence (Q14974 whole entry, looked up): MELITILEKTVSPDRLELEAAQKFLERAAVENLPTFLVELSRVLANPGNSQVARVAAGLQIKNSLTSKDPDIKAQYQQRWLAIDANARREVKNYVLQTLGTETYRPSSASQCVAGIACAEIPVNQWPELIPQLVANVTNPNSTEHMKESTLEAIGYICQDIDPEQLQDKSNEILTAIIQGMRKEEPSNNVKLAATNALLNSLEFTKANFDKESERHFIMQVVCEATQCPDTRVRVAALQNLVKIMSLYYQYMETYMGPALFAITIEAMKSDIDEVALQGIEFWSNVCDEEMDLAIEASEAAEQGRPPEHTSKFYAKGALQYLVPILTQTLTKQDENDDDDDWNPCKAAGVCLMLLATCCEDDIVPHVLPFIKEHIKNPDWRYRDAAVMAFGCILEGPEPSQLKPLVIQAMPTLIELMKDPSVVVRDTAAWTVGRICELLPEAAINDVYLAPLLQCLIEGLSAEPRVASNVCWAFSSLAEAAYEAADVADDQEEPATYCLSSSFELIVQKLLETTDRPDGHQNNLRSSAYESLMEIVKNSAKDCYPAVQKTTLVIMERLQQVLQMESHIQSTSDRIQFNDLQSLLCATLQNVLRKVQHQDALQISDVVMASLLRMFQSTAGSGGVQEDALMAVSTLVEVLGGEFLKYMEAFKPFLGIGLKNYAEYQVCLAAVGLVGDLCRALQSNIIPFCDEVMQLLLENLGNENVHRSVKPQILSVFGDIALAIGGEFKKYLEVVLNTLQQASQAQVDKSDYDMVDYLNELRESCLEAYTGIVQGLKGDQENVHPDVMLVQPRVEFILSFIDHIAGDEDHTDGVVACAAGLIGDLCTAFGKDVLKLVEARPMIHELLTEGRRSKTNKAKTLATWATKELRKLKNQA
#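 FRET biosensor Rango (snurportin 1 IBB between N-terminal EYFP and C-terminal Cerulean), 50 nM in PBS/1 mM DTT/0.02% Tween-20/0.1% BSA, preincubated 5 min RT with compound; 0.125 microM importin beta added, 45 min RT, CFP/YFP FRET ratio read.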
# miR-21 reporter = qHTS Assay for Modulators of miRNAs and/orActivators of miR-21; HeLa miR-21 FLuc reporter, luciferase, 48 h; Potency, µM (top dose mostly 38.3 µM), for inactives: at the top dose reporter change, positive = more light; 340,000 tested, under 10 active; AID 2288, 2010; active = well fitted rising curve with a large enough effect; inconclusive = small, poorly fitted or top-dose-only effect; inactive = no such curve, though single readings can be large or run the other way;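 also: % of control where 0% means no effect; miR-21 action dims this reporter so a rising signal means less miR-21 action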
#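 HeLa miR-21-FLuc reporter line, endogenous miR-21; 2000 cells/well in DMEM/10% FBS; compound titration up to ~40uM final, 48 h, 37 degree Celsius; luciferase detection reagent, 15 min lysis, CCD luminescence.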
# * hit, by the source's call; ? = inconclusive; · = no result given; & = joins results of further samples.
SMILES,GLA inh pH 4.5,Rango release inh,Rango complex inh,miR-21 reporter
O=C(CNc1ccc(C(F)(F)F)cc1[N+](=O)[O-])OCC(=O)c1ccccc1,-6,13%,?,-10%
CC(=O)c1ccc(N2CCN(C(=O)c3ccc(-c4ccccc4)cc3)CC2)cc1,·,0%,3.4%,-13%
CCN(CCCNC(=O)C1CCN(S(=O)(=O)c2cccc3nonc23)CC1)Cc1ccccc1,-13,-5%,-1.0%,-5%
CCOC(=O)C1=C(CSc2nc(-c3ccccc3)ccc2C#N)OC(N)=C(C#N)C1c1ccc(OC)cc1 (stereo not given),0,?,?,-66%
CCN(CC(=O)Nc1ccc2c(c1)OCCO2)C(=O)c1ccc(S(=O)(=O)N(C)C)cc1,·,-5%,-1.7%,·
CCc1cccc2c(C(=O)C(NCCCOC)c3ccccc3)c[nH]c12 (stereo not given),·,-7%,-2.5%,1%
O=C(/C=C\NCC(=O)c1ccccc1)c1ccccc1,-19,-8%,?,-24%
COc1ccc(CCNC(=O)CCNC(=O)c2ccco2)cc1,·,0%,-0.6%,-3%
O=C(Nc1ccc(Br)c(C(F)(F)F)c1)c1ccc(C(F)(F)F)cc1,-23,-9%,-2.1%,27%
O=C(COC(=O)c1ccccn1)Nc1nc(-c2ccccc2)cs1,·,1%,0.7%,-38%
COc1ccc(NC(=O)N2CCC(O)(c3cccnc3)CC2)c(OC)c1,0,0%,-0.5%,-5%
Cc1nc(COc2cc3oc(=O)cc(C)c3cc2Cl)cs1,·,2%,-0.9%,-18%
CCN1CCN(Cc2ccc(OC)c(OCc3ccccc3)c2)CC1,6,1%,-1.9%,-10%
O=C(Nc1nnc(Cc2ccccc2)s1)c1ccccc1,·,-10%,2.3%,-38%
O=C(NCC(=O)N(CC1CCCO1)C(C(=O)NC1CCCCC1)c1ccccc1)c1ccco1 (stereo not given),6,18%,1.6%,-2%

# Part of the list above, with each value named:
CC(=O)c1ccc(N2CCN(C(=O)c3ccc(-c4ccccc4)cc3)CC2)cc1
  GLA inh pH 4.5: · | Rango release inh: 0% | Rango complex inh: 3.4% | miR-21 reporter: -13%

CCN(CCCNC(=O)C1CCN(S(=O)(=O)c2cccc3nonc23)CC1)Cc1ccccc1
  GLA inh pH 4.5: -13 | Rango release inh: -5% | Rango complex inh: -1.0% | miR-21 reporter: -5%

# Remaining list, next part.
SMILES,GLA inh pH 4.5,Rango release inh,Rango complex inh,miR-21 reporter
Cc1ccc(C(=O)N2CCN(C)CC2)cc1S(=O)(=O)N1CCCCC1,-9,9%,?,-3%
Cc1cc(N)n(-c2ccc(Oc3ccccc3)c(S(=O)(=O)O)c2)n1,-24,8%,0.9%,3%
O=C(O)CCC(=O)N(Cc1cccs1)Cc1cccs1,0,1%,-2.0%,-9%
CCOC(=O)/C(C)=C1\NC(C)(C)Cc2ccccc21,-17,8%,9.5%,-3%
O=S(=O)(c1ccc(Cl)cc1)n1ccc2cccnc21,-1,-6%,2.3%,-6%
N#CCCC(CCC#N)C1=NCCc2ccccc21,-4,32%,-11%,6%
Cc1ccc(C)c(NS(=O)(=O)c2ccc3[nH]c(=O)[nH]c3c2)c1,3,10%,4.8%,5%
COC(=O)c1ccc(NC(=S)NC(=O)c2cc(-c3ccccc3)nc3ccccc23)cc1,-11,-9%,?,-1%
O=C(NCc1cccnc1)C(=O)NCC(c1ccco1)N1CCN(c2ccccc2F)CC1 (stereo not given),-13,-9%,-0.7%,-9%
CCOC(=O)c1[nH]c2ccccc2c1NC(C)=O,-1,?,0.5%,3%
O=C(CSC1=NCCS1)N1CCN(c2ccccc2)CC1,16,8%,-1.8%,-11%
CCOC(=O)c1c(C)[nH]c(C(=O)OCC(=O)Nc2sc(C(=O)N(C)C)c(C)c2C(=O)OCC)c1C,·,-10%,-2.5%,·
CSc1oc(-c2ccc(F)cc2)nc1S(=O)(=O)c1ccccc1,4,4%,-4.1%,-27%
Cc1cc(C(=O)NCc2cccs2)ccc1[N+](=O)[O-],0,-4%,-0.6%,-23%
COc1ccccc1N1CCN(C(=O)c2cc(-c3cccs3)on2)CC1,-2,1%,5.1%,-26%

# Three compounds from above, limited to miR-21 reporter and Rango release inh.
compound	miR-21 reporter	Rango release inh
O=C(O)CCC(=O)N(Cc1cccs1)Cc1cccs1	-9%	1%
O=S(=O)(c1ccc(Cl)cc1)n1ccc2cccnc21	-6%	-6%
N#CCCC(CCC#N)C1=NCCc2ccccc21	6%	32%

# Next structures.
SMILES,GLA inh pH 4.5,Rango release inh,Rango complex inh,miR-21 reporter
Cc1ccc2nc(C)c(C)nc2c1N,3,1%,1.1%,-7%
CC(C)C(NC(=O)c1ccccc1)C(=O)OCc1cc([N+](=O)[O-])cc2c1OCOC2 (stereo not given),-8,-4%,3.1%,-11%
COc1cc(/C=C/c2ccc(O)cc2)cc(OC)c1,-1,-22%,4.7%,-70%
O=C1c2ccccc2C(=O)N1CCCc1nc(-c2ccc(Cl)cc2)no1,-5,12%,3.6%,-3%
CN(C)c1nc(NCc2ccccc2)nc(N/N=C/c2ccc(Br)cc2)n1,1,9%,1.1%,-1%
O=C(O)c1ccc(N/N=C/c2ccc3nccnc3c2)cc1,-12,?,?,?
COc1ccc(-c2cc(C(=O)Nc3ccc4c(c3)OCO4)no2)cc1,·,8%,0.3%,1%&-23%
COc1nnc(-c2ccc(C)c(S(N)(=O)=O)c2)c2ccccc12,·,17%,-1.7%,-5%
CCN=C1S/C(=C\c2cc(Cl)c(OC)c(OC)c2)C(=O)N1CC,·,?,2.5%,-6%
COc1cc(/C=C(/C#N)C(=O)Nc2ccc(C)cc2)ccc1Oc1nc(Cl)ncc1F,-9,?,-8.7%,-4%
COc1ccc(-n2nc3c(N4CCC(C(=O)NCc5cccc(C)c5)CC4)nnc(C)c3c2C)cc1,·,2%,3.7%,24%
CCOc1ccccc1C(c1c(C)n(C)n(-c2ccccc2)c1=O)c1c(C)n(C)n(-c2ccccc2)c1=O,·,14%,1.3%,2%
O=C(Nc1ccc(F)cc1)c1ccc(C(=O)N2CCCC(O)C2)cc1 (stereo not given),·,0%,0.0%,·
CCN(CC(=O)Nc1ccc(NC(C)=O)cc1)C(=O)COc1ccccc1Cc1ccccc1,·,0%,0.2%,6%
CC[C@]12c3[nH]c4cc(CCC(=O)N(C)C)ccc4c3CCN1C(=O)[C@@H](CC(=O)NCCCN(C)C)C[C@@H]2C(=O)N1CCN(C(=O)C2CC2)CC1,·,2%,2.0%,·
CCOC(=O)C1CCN(Cc2c(O)c3ccccc3oc2=O)CC1,5,9%,0.5%,-13%
Cc1ccc(-c2nnn(CC(=O)N(CC(=O)NC3CCCCC3)c3cccc(F)c3)n2)o1,·,15%,-3.4%,-3%
CC1CCCC(NC(=O)Cn2cc(C(F)(F)F)cc(Cl)c2=O)C1C (stereo not given),·,5%,1.7%,·
O=Cc1cc2ccccc2nc1SCc1ccc(Cl)c(Cl)c1,-18,-10%,-2.1%,1%
CCOc1ccc(C(=O)NCC(=O)N2CCN(c3ccc(C(F)(F)F)cn3)CC2)cc1,·,-5%,0.7%,·
O=C(O)c1ccc(-n2cccc2/C=C2/SC(=O)N(CC(=O)N3CCCC3)C2=O)cc1,·,-8%,-0.4%,-8%
O=C(NOCc1ccccc1)c1ccccc1,·,-7%,-1.6%,·
CCC(=O)Nc1cc2c3c(c1)CCN3C(=O)CC2,·,3%,-1.2%,4%
S=C(NCc1ccc(Cl)cc1)Nc1ccccc1,2,36%,-0.5%,-13%
CCn1c(N)c(C(N)=O)sc1=S,-4,19%,2.4%,-5%
COc1cccc(/C=C/C(=O)OCC(=O)N2CCN(S(=O)(=O)c3ccc(Cl)cc3)CC2)c1,·,-14%,0.7%,0%
Cc1ccc(CSc2ncnc3ccccc23)cc1,-1,-4%,-0.8%,-24%
NC(=O)C1CCN(C(=O)c2ccc3c(=O)n(Cc4ccco4)c(SCC(=O)c4ccccc4)nc3c2)CC1,-4,-1%,-2.1%,-2%
CN(C(=O)c1cccc(NC(=O)Cc2ccc(NC(=O)C3CCCN(C(=O)C4CCCCC4)C3)cc2)c1)C1CCCC1 (stereo not given),·,0%,-0.9%,·
COc1ccc(CN2CC(C(=O)NCCCN3CCCCCC3)CC2=O)cc1 (stereo not given),5,-6%,-0.1%,-1%
CCN(CC)CCCN(C(=O)c1ccc(F)cc1)c1nc(-c2ccc(OC)cc2)cs1,·,1%,-0.3%,18%
COc1cc(C)ccc1OCCCCNCc1ccccc1,·,14%,1.0%,1%
COc1ccc(N2CCN(/C(=N\S(=O)(=O)c3ccc(C)cc3)Nc3nc(C)cc(C)n3)CC2)cc1,7,8%,-4.1%,-3%
CCc1ccc(C(=O)NC(=S)Nc2ccc(N3CCOCC3)cc2)cc1,-22,8%,0.2%,-10%
O=C(CN1C(=O)NC2(CCCc3ccccc32)C1=O)N1CCN(c2cccc(C(F)(F)F)c2)CC1 (stereo not given),·,62%,-0.9%,·
COc1ccc(/C=N/NC(=O)c2ccc(F)cc2)cc1CN1CCc2cc(OC)c(OC)cc2C1C (stereo not given),-3,6%,-4.6%,-4%
O=C(Nc1ccc(Cl)cc1)N1CCCN(Cc2ccccc2F)C1,1,-5%,8.4%,-5%
O=C(NCCS(=O)(=O)NC1CCCC1)c1ccccc1,·,29%,6.3%,·
CCn1cc(C(=O)OCC(=O)Nc2ccccc2OC(F)F)c(=O)c2ccc(C)nc21,·,?,14%,·
Cc1c(NC(=S)N/N=C/c2ccc([N+](=O)[O-])cc2O)c(=O)n(-c2ccccc2)n1C,-10,-7%,0.5%,3%
Cn1c(SCC(=O)CC(=O)Nc2ccccc2)nnc1-c1ccc(O)cc1,2,-9%,-1.1%,-11%
COc1cccc(C(=O)NNC(=O)C(=O)Nc2ccc(OC)cc2OC)c1,·,-15%,0.0%,-1%
CCOC(=O)N1CCN(C(=O)Cc2c(C(=O)O)n(C)c3ccccc23)CC1,3,-12%,5.7%,-1%
CCOC(=O)Cn1c(=O)cnc2ccccc21,4,3%,-3.0%,-7%
CCCCCc1cccnc1,-17,-21%,-0.5%,-4%
c1ccc(C(c2ccccc2)N2CCN(Cc3nc(-c4cnccn4)no3)CC2)cc1,-2,28%,-2.9%,2%
CCc1noc(C)c1C(=O)OCC(=O)Nc1ccc2c(c1)OCO2,·,?,-0.7%,·
CCCSc1nc(O)c(C(c2ccc(OC)c(O)c2)c2c(O)nc(SCCC)n(C)c2=O)c(=O)n1C,-10,-15%,10%,-3%
COc1ccc(C(CNC(=O)c2cc(S(=O)(=O)N3CCCC3)ccc2Cl)N2CCCC2)cc1 (stereo not given),·,-7%,-0.1%,·
Cc1cc2cc(CNC(=S)Nc3ccc(OC(F)F)cc3)ccc2[nH]1,-12,-18%,-0.3%,-1%
COc1ccc(NC(=O)O/N=C2/CCCc3ccc(OC)cc32)cc1,4,-3%,-4.4%,-38%
COC(=O)NC1CSCC1OC(=O)c1ccc(Br)cc1 (stereo not given),-4,5%,1.3%,-4%
COc1ccc(NC(=O)c2cc(-c3ccco3)on2)cc1OC,·,-3%,-3.9%,-21%
COc1ccc2c(c1)-c1c(ssc1=S)C(C)(C)N2C(=O)CSC1=NCCS1,-6,-4%,0.8%,17%
C=CCNC(=O)c1c(C(F)(F)F)nn(C)c1Cl,-6,1%,-1.3%,0%
CC1CCN(S(=O)(=O)c2ccc3c(c2)NC(=O)CS3)CC1,·,4%,-2.8%,-1%
CCN(CC)S(=O)(=O)c1ccc(C(=O)NCCCN=C2NS(=O)(=O)c3ccccc32)cc1,3,-6%,-5.1%,-6%
OC(COc1ccc(OCC(O)CN2CCCCC2)cc1)CN1CCCCC1 (stereo not given),·,2%,-2.3%,-8%
CC(C)(C)C(=O)NC(=O)Nc1ccccc1C(F)(F)F,-1,-10%,3.1%,-1%

# Only part of the results is shown; the hit share may differ from the screen's.
